Assay outcomes deposited in PubChem BioAssay by several laboratories.
MT1-MMP reporter: MT1-MMP gene expression reporter suppression – cell-based, luciferase reporter, luminescence (AID 618) | actives 0.62% (n = 87,000) | calls from a first round at 10 µM; hits with a dose series show EC50 in µM | MT1-MMP promoter luciferase reporter cells, luminescence;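 active means over half of the reporter light lost at 10 µM or EC50 under 50 µM; inactive means the rest and hits that failed the dose series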;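 further: actives suppress MT1-MMP promoter-driven transcription so potencies describe inhibitors; HT1080 fibrosarcoma cells; overnight exposure; toxic or luciferase-blocking compounds were not removed from the actives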
Hsc70: small molecules displacing fluorescent ligand from Hsc70 – biochemical, fluorescence polarization, primary screen (AID 568) | Hsc70 fluorescence polarization, probe displacement; higher % means a stronger effect; strong numbers were not always called active | one-dose displacement, % at 20 µM; IC50 in µM for titrated hits | 83,000 tested, under 10 active;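 active means displacement above 50% without optical interference and an IC50 on retest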;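 further: ATPase domain with a fluorescein-tagged ATP probe; 0% = vehicle and 100% = excess ADP; read after one hour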
WNV NS2B-NS3 inh: WNV NS2B-NS3 proteinase inhibition; P06935; WNV NS2B-NS3 protease, fluorogenic substrate Ex360/Em465; hits give low values; z-score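 (tested at a level between 10 and 100 µM)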; actives 0.18% (n = 65,000); AID 577;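 active means z-score at -3 or under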;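 further: score is relative to mean and spread of the compound wells of a plate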
Target sequence (P06935 1371-1501 limits assumed): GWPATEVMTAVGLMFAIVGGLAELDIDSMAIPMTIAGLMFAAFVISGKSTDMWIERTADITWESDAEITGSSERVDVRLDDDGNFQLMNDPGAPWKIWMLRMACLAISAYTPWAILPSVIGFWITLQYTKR
Target sequence (P06935 1502-1679 limits assumed): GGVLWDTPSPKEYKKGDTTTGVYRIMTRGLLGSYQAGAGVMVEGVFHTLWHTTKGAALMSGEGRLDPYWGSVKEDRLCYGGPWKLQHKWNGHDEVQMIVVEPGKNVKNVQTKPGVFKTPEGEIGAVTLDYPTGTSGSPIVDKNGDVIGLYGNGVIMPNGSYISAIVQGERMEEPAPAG
The depositor's hits bear a star; i = inactive; · = no result given.

SMILES | MT1-MMP reporter | Hsc70 | WNV NS2B-NS3 inh
COc1cccc(C2/C(=C(/O)c3ccc(C)cc3)C(=O)C(=O)N2Cc2ccco2)c1 (centres undefined) | i | 6.0% | 1.2
O=C(NCCCN1CCCC1=O)Nc1ccc(Cl)cc1 | i | 5.7% | -0.01
COc1cccc(S(=O)(=O)Nc2ccc(C(=O)N3CCN(C(=O)c4ccco4)CC3)cc2)c1 | i | 4.0% | 0.04
N=c1n(Cc2ccccc2)c2ccccc2n1CC(O)c1ccccc1 (centres undefined) | i | -4.0% | -0.63
Cn1c(NC(=O)C2CC2)cc(=O)n(C)c1=O | i | 1.6% | 2.5
O=C(NCCc1ccccc1)c1ncn[nH]1 | i | -1.5% | 0.22
CC1(C)c2ccccc2N2CC(=O)N(CC(N)=O)C21C (centres undefined) | i | -11% | 0.0049
O=C(Cn1ccc2ccccc2c1=O)NCCC(=O)N1CCN(C2CCCCC2)CC1 | i | -1.6% | -0.62
Cc1cc(C)n(C(=O)c2nn(C)c(C)c2[N+](=O)[O-])n1 | i | -1.6% | ·
CCCNC(=O)Cn1cnc2sc(C(=O)NCCN(CC)CC)c(C)c2c1=O | i | 5.9% | 1
CCOC(=O)c1cc(-c2cc3ccccc3o2)nc2c1c(=O)[nH]c(=O)n2CCOC | i | 7.5% | -0.33
O=C(O)C1CCCCC1C(=O)Nc1ccc(Cl)cc1Cl (centres undefined) | i | -1.0% | -0.82
Nc1c(Cl)cc(Cl)cc1C(=O)OCC(=O)N1CCCC1 | i | 1.4% | ·
CCOC(=O)NC1(NCc2ccccc2)Oc2ccccc2O1 | i | -4.7% | 0.93
CCCC(=O)Nc1ccc(NC(=O)c2ccco2)c(OC)c1 | i | 1.2% | 0.41
N#CC(C(=O)c1ccco1)c1ccccn1 (centres undefined) | i | 5.1% | -0.58
COC(=O)/C(=C/Nc1ccccc1)[N+](=O)[O-] | i | 2.3% | ·
CC(C)CNC(=O)CCc1c[nH]c2ccccc12 | i | -1.2% | ·
O=C(Oc1cccc2c(O)cccc12)c1ccccc1 | i | -0.7% | 1.1
CC1CCCCC1NC(=O)C1CCN(S(=O)(=O)c2cccc3nsnc23)CC1 (centres undefined) | i | 2.5% | ·
Cn1nc(CC(=O)Nc2cccnc2N2CCOCC2)c2ccccc2c1=O | i | -0.3% | -0.24
COc1ncnc2sc3c(c12)CCCC3 | i | 6.9% | -0.28
NC(=O)c1ccccc1OCC(=O)NS(=O)(=O)c1ccc(Cl)cc1 | i | 0.3% | ·
COc1cc2c(cc1OC)CN(C(=O)NS(=O)(=O)c1ccc(C)cc1)CC2 | i | -6.9% | 1.6
Cc1nc(NC(=O)CSc2nc3cccnc3n2Cc2ccccc2)sc1C | i | -11% | 1.1
Cc1ccc2nc(SCc3nnc(-c4ccccc4)o3)[nH]c2c1 | i | -2.2% | ·
COC(=O)c1ccc(Nc2nc(C)cc(=O)[nH]2)cc1 | i | -5.8% | 1
Cc1ccc(C(=O)C2=C(O)C(=O)N(Cc3ccccc3)C2c2cccnc2)o1 (centres undefined) | i | 5.0% | 0.58
O=C(Nc1nc(-c2ccc(Cl)s2)cs1)c1ccncc1 | i | -5.5% | -0.14
COc1ccc(CCNS(=O)(=O)c2ccc3c(c2)CCN3C(=O)C2CC2)cc1OC | i | -7.9% | 0.76
CCC(=O)c1coc2ccc(O)cc12 | i | 0.7% | ·
Cc1ccccc1NC(=O)CSc1nnc(-c2ccoc2C)n1CCc1ccccc1 | i | -2.9% | 0.1
CC(C)(C)n1nnnc1C(c1cccnc1)N1CCN(c2ccccc2)CC1 (centres undefined) | i | 7.0% | ·
CCCC(=O)NC1C2CC3CC(C2)CC1C3 (centres undefined) | i | -2.4% | -0.49
CC(C)Cc1nc(SCC(=O)Nc2ccc(S(N)(=O)=O)cc2)n[nH]1 | i | -0.9% | ·
Cc1cc(C(=O)CSc2nc3ccc(Cl)cc3[nH]2)c(C)n1C | i | 1.5% | 0.92
CC(C)N(Cc1nc(-c2ccc(Cl)cc2)no1)C(=O)CN(C)S(=O)(=O)c1ccc(Cl)cc1 | i | -1.0% | -0.93
COCCNC(=O)C(c1ccc(Cl)cc1)N(C(=O)CCC(=O)Nc1ccccn1)C1CCCC1 (centres undefined) | i | -0.5% | 0.53
CC(C)N1C(=O)c2ccc(C(=O)O)cc2C1=O | i | -0.3% | -0.39
CCn1c(CSc2nncn2-c2ccc(OC)cc2)nc2cc(S(=O)(=O)N(C)C)ccc21 | i | 4.0% | 1.2
Cc1ccccc1S(=O)(=O)Cc1ccc(C(=O)NCc2cccnc2)o1 | i | -2.6% | 0.23
CCCOc1ccc(NC(=O)C2CC(=O)N3CCCN=C3S2)cc1 (centres undefined) | i | -0.3% | -0.29
CCCOc1cc(C)c(S(=O)(=O)NCCOC)cc1C | i | 8.2% | 0.09
O=C(c1csc2c1CCCCC2)N1CCN(c2ncccn2)CC1 | i | -2.6% | -0.74
Cc1ccc(NC(=O)CSc2nc3nc(C)cc(C)c3c(=O)[nH]2)cc1 | i | -5.8% | 0.84
O=C(COC(=O)c1ccccc1NCc1ccco1)Nc1ccc2c(c1)OCO2 | i | -1.1% | ·
Clc1cccc(-c2nn3c(Cn4cnc5ccccc54)nnc3s2)c1 | i | -3.2% | -0.39
Cc1cccc(S(=O)(=O)c2c(N)n(/N=C/c3cccnc3)c3nc4ccccc4nc23)c1 | i | -2.0% | -0.59
COCCN(CCOC)C(=O)CC(=O)N(CCOC)CCOC | i | 2.6% | ·
COC(=O)c1ccc(S(=O)(=O)N2CCCCCC2)cc1 | i | -4.0% | -0.22
CC(c1ccccc1)C1C(C#N)=C(N)OC2=C1C(=O)CCC2 (centres undefined) | i | -2.2% | -0.28
CCSc1nc2ccccc2c(=O)n1OCC(=O)OC | i | -1.1% | ·
COc1cc(C2C(C#N)=C(N)Oc3cc(C)oc(=O)c32)cc2c1OCO2 (centres undefined) | i | -7.3% | 0.43
Cc1nccc2[nH]c(=O)c(C(=O)NC3CCCCC3C)cc12 (centres undefined) | i | -0.4% | 0.23
O=C1CC(c2cccc(Cl)c2)Cc2nc(N3CCN(c4ccccc4)CC3)ncc21 (centres undefined) | i | 4.2% | 1.4
COc1ccccc1NC(=O)c1oc2ccccc2c1NC(=O)c1cc(OC)c(OC)c(OC)c1 | i | 0.2% | 0.82
CCn1c(SC)nnc1-c1c[nH]c2ccccc12 | i | 4.5% | 1.2
Cc1nc2cc(C(=O)OCC(=O)N(CC(C)C)C3CCS(=O)(=O)C3)ccc2n1-c1ccccc1 (centres undefined) | i | -0.9% | 0.64
Cc1cc(C)n(C(=O)CNc2ccccc2Cl)n1 | i | 0.5% | ·
O=C(NC12CC3CC(CC(C3)C1)C2)c1cccnc1 | i | 2.3% | -0.35

New compounds follow
SMILES | MT1-MMP reporter | Hsc70 | WNV NS2B-NS3 inh
Cc1cccc(NC(=S)NC(NC(=O)c2ccco2)C(Cl)(Cl)Cl)c1 (centres undefined) | i | 1.6% | ·
COCCCN1C(=O)C(=O)/C(=C(/O)c2ccc(OC(C)C)c(C)c2)C1c1ccncc1 (centres undefined) | i | -3.3% | -1.5
COCCNC(=O)C1c2cc(OC)c(OC)cc2C(=O)N(C)C1c1cccnc1 (centres undefined) | i | 4.8% | 0.03
CCOc1ccc(N2C(=O)NC(Cc3c[nH]c4ccccc34)C2=O)cc1 (centres undefined) | i | -1.0% | -0.02
Cc1ccc2nc(CCc3nc4ccc(C)cc4o3)oc2c1 | i | -0.5% | 1.5
COc1ccc(NC(=O)CSc2nnc(Cc3cccn3C)n2-c2ccc(F)cc2)cc1OC | i | -0.8% | 0.18
O=C(O)C1C2CCC(C2)C1C(=O)Nc1cc(F)ccc1F (centres undefined) | i | -7.2% | -0.34
COc1ccc(-n2c(=O)cc(N3CCOCC3)[nH]c2=O)cc1 | i | -3.0% | 1.8
CC1=C(C(=O)OC2CCCCCCC2)C(c2cc3c(cc2Br)OCO3)CC(=O)N1 (centres undefined) | i | 6.4% | ·
COc1ccccc1OCCCn1c(=O)oc2ccc(C)cc21 | i | 2.8% | -0.13
CC(=O)N1CCN(S(=O)(=O)c2ccc(S(=O)(=O)NCC(C)C)cc2)CC1 | i | 6.2% | -0.35
Cc1nc(=O)c(-c2ccccc2)c(C)n1-c1cccc(C(=O)O)c1 | i | 2.1% | 0.16
CCN(CC)C(=O)C(C)N(C#N)c1nc(SC)nc(N(C)C)n1 (centres undefined) | i | -3.3% | 0.18
CCC(CC)c1nnc(NC(=O)c2ccc3ccccc3n2)s1 | i | -1.2% | ·
O=C(c1ccc(S(=O)(=O)N2CCCC2)cc1)N1CCN(Cc2ccc3c(c2)OCO3)CC1 | i | 1.2% | -0.76
O=C(CCCn1c(=S)[nH]c2cc3c(cc2c1=O)OCO3)N1CCN(c2ccc(Cl)cc2)CC1 | i | -0.9% | -0.84
Cc1ccccc1-c1nnc2c3ccccc3c(C)nn12 | i | -3.2% | ·
O=C(Cc1ccccc1)Nc1ccc(N2CCOCC2)cc1N1CCOCC1 | i | 7.8% | -0.64
COc1ccc(/C=N/Nc2ncc(-c3ccccc3)cn2)c(OC)c1 | i | 0.8% | ·
C=CCNS(=O)(=O)c1nc(C)c(Cl)c(C)c1C#N | i | -1.2% | 2
Cc1cc(C)n2c3c(c(C#N)c2n1)CCCC3 | i | -2.0% | 0.25
O=[N+]([O-])c1ccc(/C=N/Nc2nc(N3CCCC3)nc(N3CCCC3)n2)o1 | i | -4.1% | ·
C=CCn1c(=O)c2ccccc2n2c(SCC(=O)Nc3cc(C)on3)nnc12 | i | -5.8% | -0.35
COc1cccc(-c2nc(-c3ccc(NC(=O)c4cccnc4)cc3)no2)c1 | i | -4.6% | -1.9
COc1cccc(-n2nnnc2SCC(=O)NCc2ccc3c(c2)OCO3)c1 | i | 6.0% | -0.13
COc1ccc(OC)c(-n2c(SCC(C)=O)nnc2-c2cccc(S(=O)(=O)N(C)C)c2)c1 | i | 4.9% | -0.31
CCNc1nnc(CSc2nc3ccccc3s2)s1 | i | 1.3% | ·
CCCOc1ccc(CSc2nnc(CCC)n2N)cc1 | i | -5.8% | 1
Cc1ccc(Nc2nc(Oc3ccc(OCc4ccccc4)nn3)nc(N3CCOCC3)n2)cc1 | i | -1.7% | -0.54
C=CCn1c(CSc2nc3ccccc3s2)nnc1SCC(=O)OCC | i | -1.1% | -0.45

Of the compounds above, nine contain two or more sulfur atoms:
SMILES | MT1-MMP reporter | Hsc70 | WNV NS2B-NS3 inh
CC1CCCCC1NC(=O)C1CCN(S(=O)(=O)c2cccc3nsnc23)CC1 (centres undefined) | i | 2.5% | ·
Cc1nc(NC(=O)CSc2nc3cccnc3n2Cc2ccccc2)sc1C | i | -11% | 1.1
O=C(Nc1nc(-c2ccc(Cl)s2)cs1)c1ccncc1 | i | -5.5% | -0.14
CC(C)Cc1nc(SCC(=O)Nc2ccc(S(N)(=O)=O)cc2)n[nH]1 | i | -0.9% | ·
CCn1c(CSc2nncn2-c2ccc(OC)cc2)nc2cc(S(=O)(=O)N(C)C)ccc21 | i | 4.0% | 1.2
CC(=O)N1CCN(S(=O)(=O)c2ccc(S(=O)(=O)NCC(C)C)cc2)CC1 | i | 6.2% | -0.35
COc1ccc(OC)c(-n2c(SCC(C)=O)nnc2-c2cccc(S(=O)(=O)N(C)C)c2)c1 | i | 4.9% | -0.31
CCNc1nnc(CSc2nc3ccccc3s2)s1 | i | 1.3% | ·
C=CCn1c(CSc2nc3ccccc3s2)nnc1SCC(=O)OCC | i | -1.1% | -0.45

The results go on:
SMILES | MT1-MMP reporter | Hsc70 | WNV NS2B-NS3 inh
Cc1cc(C)nc(NS(=O)(=O)c2ccc(NC(=S)NC(=O)C3CCCC3)cc2)n1 | i | -2.3% | ·
C=CCN(CC=C)c1nc2ccccc2nc1C(C#N)C(=O)OCCOC (centres undefined) | i | 21% | 1.4
Clc1ccc(CSc2nnc([C@@H]3CCCN3)o2)cc1Cl | i | 4.4% | -0.07
CC1(C)CC(=O)C=C(NC2CCS(=O)(=O)C2)C1 (centres undefined) | i | -6.3% | 0.81
COc1cccc(NC(=O)Cn2cnc3sc(C)c(S(=O)(=O)N4CCCCC4)c3c2=O)c1 | i | 0.5% | ·
COC(=O)C1=C(N)Oc2cc(C)n(CC3CCCO3)c(=O)c2C1c1ccc(Cl)cc1 (centres undefined) | i | -1.3% | -1.1
CCn1c(CNc2ccc(Cl)cc2)nnc1SCc1ccc(Cl)cc1 | i | -3.0% | ·
COC(=O)c1ccccc1N(C)C(=O)C12CCC(C)(C(=O)O1)C2(C)C (centres undefined) | i | 1.3% | -0.65
COc1cccc2cc(C(=O)N3CCC(C)CC3)c(=O)oc12 | i | 1.2% | -0.96
COC(=O)c1ccsc1NC(=O)CN1CCN(c2ccc(F)cc2)CC1 | i | 5.7% | 0.54
O=C(Nc1c(C(=O)N2CCOCC2)cnn1-c1ccccc1Cl)c1ccco1 | i | -0.3% | -0.63
Cc1ccc(Cn2nnc(C(=O)Nc3cc(C)ccc3C)c2N)cc1 | i | -4.6% | -0.19
O=C(Nc1ccc2c(c1)OCO2)c1ccc(Br)o1 | i | -2.1% | ·
COc1ccc2c(c1)c(C(=O)CN1CCOCC1)c(C)n2C | i | 11% | 0.28
COc1cccc(CC(NC(C)=O)C(=O)NC2CCN(c3nc(C)cc(C)c3C#N)CC2)c1 (centres undefined) | i | 1.2% | -0.6

An unsorted share of the library. About 0.87% of those tested had a hit in this group.
